# Mtb growth: M. tuberculosis H37Rv growth inhibitors, H37Rv strain (AID 1626). M. tuberculosis H37Rv growth inhibition; higher % means a stronger effect. inhibition, % at 10 µM; hits with a dose series show IC50 in µM. actives 0.95% (n = 220,000);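 active = confirmed in a dose series; inconclusive = inhibition above 80% but not taken into the dose series; inactive = below 80% or under 30% at every dose of the series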;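 note: bacteria incubated seven days before Alamar blue readout; 0% = bacteria only wells and 100% = bacteria with antibiotic wells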
# Mtb bLac sens: beta-lactam sensitization of Mtb H37Rv, H37Rv; M. tuberculosis H37Rv growth with meropenem, percent inhibition; hits of this screen are not shown here; actives 0.27% (n = 330,000); inhibition, % at 25 µM; AID 434955, 2010;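 active = about 74% or more and at least 40 points above the plate without the antibiotic, then above 30% in a dose series; inconclusive = first-round hits that could not be retested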;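 note: growth measured after seven days incubation then overnight dye step; 0% = bacteria only wells and 100% = bacteria with antibiotic; twin plates without the antibiotic show which effects depend on it; some results filed as inactive read as strong as hits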
# YopH inh: YopH tyrosine phosphatase inhibitors, primary screen, biochemical, fluorescence Ex485/Em525; AID 898, 2007; YopH tyrosine phosphatase [Yersinia enterocolitica]; inhibition, %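 (about 10 µM by stock and volumes)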; actives 0.16% (n = 140,000);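 active = inhibition of 50% or more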;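 note: controls were vehicle for no effect and minimum signal wells for full effect; inactives centre near -20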
# RecA intein inh: Mtb RecA intein splicing inhibitors, primary screen, biochemical, fluorescence, HTS; cell-free RecA intein splicing; inhibition, %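 (about 9 µM by stock and volumes)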; actives 0.75% (n = 290,000); AID 2221, 2009; in the data active = inhibition above about 30%; inconclusive = no clear call, values can overlap the other calls;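 note: 0% = vehicle wells and 100% = reference inhibitor control wells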
# Target sequence (P9WHJ3 whole entry, looked up): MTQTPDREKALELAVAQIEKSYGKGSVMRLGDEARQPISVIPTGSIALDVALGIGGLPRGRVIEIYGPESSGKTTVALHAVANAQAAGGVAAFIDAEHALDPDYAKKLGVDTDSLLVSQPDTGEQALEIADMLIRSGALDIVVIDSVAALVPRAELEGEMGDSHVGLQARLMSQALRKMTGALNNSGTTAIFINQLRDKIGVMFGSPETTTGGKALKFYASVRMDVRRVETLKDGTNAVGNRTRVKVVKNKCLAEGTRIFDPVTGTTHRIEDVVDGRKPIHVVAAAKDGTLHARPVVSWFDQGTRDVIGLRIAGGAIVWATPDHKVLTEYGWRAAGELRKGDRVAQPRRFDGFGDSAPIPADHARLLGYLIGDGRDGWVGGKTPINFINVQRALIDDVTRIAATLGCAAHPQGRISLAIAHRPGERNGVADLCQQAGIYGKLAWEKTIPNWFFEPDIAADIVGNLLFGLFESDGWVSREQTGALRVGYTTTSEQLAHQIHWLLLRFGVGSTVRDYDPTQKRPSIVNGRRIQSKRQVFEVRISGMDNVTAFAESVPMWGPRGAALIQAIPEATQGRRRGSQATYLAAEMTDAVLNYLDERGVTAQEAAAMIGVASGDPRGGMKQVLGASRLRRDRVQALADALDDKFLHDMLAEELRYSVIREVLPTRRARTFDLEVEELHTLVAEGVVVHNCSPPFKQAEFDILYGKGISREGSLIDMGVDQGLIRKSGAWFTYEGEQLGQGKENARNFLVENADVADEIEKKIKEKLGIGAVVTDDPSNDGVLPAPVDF
# Arbovirus anti: antivirals against arbovirus infection, primary screen, cell-based, full library, 10K replicate subset; arbovirus infection cell-based antiviral screen; inhibition, % at 10 µM; actives 0.37% (n = 200,000); AID 1251, 2008;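 active = inhibition from about 30%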;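 note: bluetongue infection of BSR cells; cell survival read as ATP light after 72 h; 0% = infected wells without compound and 100% = uninfected wells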
# Arbovirus anti repeat: recorded beside Arbovirus anti, whose call it bears; inhibition, %; measured here: 10K subset replicate screen; many hits read low in the repeat;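 first of two repeat runs on a subset; 0% = infected and 100% = uninfected wells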
# Starred values were filed as active, the others as inactive; ? = inconclusive; · = no result given. This is a subset. The share of hits here may be higher or lower than overall.
SMILES,Mtb growth,Mtb bLac sens,YopH inh,RecA intein inh,Arbovirus anti,others
Cc1ccc(C)c(NS(=O)(=O)c2cc(C(=O)NCc3ccccn3)ccc2C)c1,·,1.2,·,2.6,·,
CCN(CC)CCOC(=O)c1ccccc1Br,-1.6%,6.0,·,-1.9,2.6,
O=C(CCCn1c(=O)[nH]c2cc(Cl)ccc2c1=O)NCCC1=CCCCC1,-7.8%,-3.6,-9.5,-0.6,1.6,
CCOc1ccc(C(=O)SC2=NCCS2)cc1,-8.6%,-0.2,-12.2,0.7,-4.4,
O=C(CSC1=NCCN1)C1COc2ccccc2O1 (centres undefined),-4.3%,-8.4,-38.0,-4.0,4.3,
O=C(CN1CCOCC1)Nc1cccc(Br)c1,-6.3%,-12.2,-6.1,-3.1,-1.6,
CS(=O)(=O)N1CCc2cc(C(=O)N3CCN(c4ccccc4F)CC3)ccc21,·,6.2,·,0.5,·,
CN1CCN(NC(=O)Nc2cc(Cl)cc(Cl)c2)CC1,·,72.1,·,-0.1,·,
CCCNc1c(NC(=O)c2cccs2)c(=O)oc2ccccc12,·,?,·,1.3,·,
O=c1c2[nH]c3cccc(Cl)c3c2ncn1CCN1CCCCC1,-4.1%,-3.6,-34.1,1.9,-2.3,
O=C(CCS(=O)(=O)c1ccccc1)Nc1ccccc1N1CCOCC1,-7.0%,-5.1,·,1.2,5.0,
CN(C)CC(=O)c1c(N)n(Cc2ccccc2)c(=O)n(C)c1=O,-0.5%,-12.5,·,0.9,2.4,
COc1cccc(-n2nnc3c(=O)n(Cc4cccc(F)c4)cnc32)c1,4.9%,10.4,1.8,3.3,-9.2,
CN(c1ccccc1)S(=O)(=O)c1ccc(NC(=O)COc2ccccc2)cc1,·,?,·,9.2,·,
c1ccc(-c2noc(-c3ccccc3-c3ccccc3)n2)cc1,-6.4%,16.6,-5.1,9.5,1.9,
CCn1c(NC2CCCCC2)nc2ccccc21,-2.2%,-8.8,0.1,1.2,8.7,
O=C1Cc2ccccc2Sc2ccccc21,5.1%,97.3,-12.6,3.0,-3.9,
COc1nc(OC)nc(N2CCC(NC(=O)C(Cc3cccc(OC)c3OC)NC(C)=O)CC2)n1 (centres undefined),-3.0%,-9.0,·,2.5,·,
COc1ccc(CCNC(=O)C2CC(=O)N(c3ccc(Br)cc3)C2)cc1OC (centres undefined),2.9%,-3.0,·,-1.8,2.3,
CCOc1ccc(NC(=O)Cc2ccc(NC3=NC4CS(=O)(=O)CC4S3)cc2)cc1 (centres undefined),·,1.0,·,-2.5,·,
COc1ccc(OC)c(-c2c(=O)n(OCc3ccccc3Br)c3ccccc3[n+]2[O-])c1,4.0%,10.3,-34.3,2.0,6.3,
O=C(CN(Cc1ccccc1)S(=O)(=O)c1ccc(F)cc1)NCc1ccncc1,·,-4.5,·,2.7,·,
COc1ccc(CNC(=O)CN2C(=O)C(C)N(c3ccc(C)cc3)C2=O)cc1 (centres undefined),·,-5.0,-10.1,-0.3,1.2,
C/C(=N\NC(=O)c1cc(C)nc2ccccc12)c1ccncc1,·,-5.7,·,-3.8,·,
COC(=O)c1[nH]c2ccc(C)cc2c1NC(=O)CN1CCN(C(=O)c2ccccc2)CC1,-3.0%,-10.2,-16.1,2.9,-1.6,

# Ordered by number of heavy atoms (low to high): four of the compounds above.
SMILES,Mtb growth,Mtb bLac sens,YopH inh,RecA intein inh,Arbovirus anti,others
O=C1Cc2ccccc2Sc2ccccc21,5.1%,97.3,-12.6,3.0,-3.9,
c1ccc(-c2noc(-c3ccccc3-c3ccccc3)n2)cc1,-6.4%,16.6,-5.1,9.5,1.9,
O=C(CCCn1c(=O)[nH]c2cc(Cl)ccc2c1=O)NCCC1=CCCCC1,-7.8%,-3.6,-9.5,-0.6,1.6,
CS(=O)(=O)N1CCc2cc(C(=O)N3CCN(c4ccccc4F)CC3)ccc21,·,6.2,·,0.5,·,

# Remaining list, next part.
SMILES,Mtb growth,Mtb bLac sens,YopH inh,RecA intein inh,Arbovirus anti,others
CC1(C)CC(C(=O)NCCC(c2ccccc2)c2ccco2)CCO1 (centres undefined),-5.0%,-3.6,-3.0,0.3,4.8,
CNc1cnn(-c2ccc(C)cc2)c(=O)c1Sc1ccc(C)cc1,9.7%,9.5,·,1.0,1.4,
CC(C)Nc1nc(Cl)nc(NC2CCCCC2)n1,·,0.6,·,1.5,·,
O=C(NCCc1ccc(F)cc1)c1cc(=O)c2ccccc2o1,-5.2%,-12.3,·,-1.4,9.5,
COC(=O)c1sc(S(=O)(=O)N2CCC(C(=O)O)CC2)c(C(=O)OC)c1C,-9.2%,6.3,-14.8,-4.2,-2.0,
COc1cc(C(F)(F)F)nc(-c2ccccn2)n1,6.3%,-7.8,·,-1.5,3.4,
Nn1c(Cc2cccc3ccccc23)nnc1SC1CCOC1=O (centres undefined),-1.7%,1.2,4.0,-1.5,11.2,
C[C@@H](C(=O)Nc1nc2ccccc2s1)N1C(=O)C2CC=CCC2C1=O (some centres undefined),4.1%,-3.1,·,0.5,15.2,
CN1CCC(N(C)Cc2cccnc2)CC1,·,9.4,-13.9,-3.9,2.8,
CN(C)CCCN(C(=O)c1cccs1)c1nc(-c2ccccc2)cs1,6.1%,-3.1,-3.2,·,-17.5,
O=C(N[C@@H]1CCC(=O)N(CC[C@H](Oc2ccccc2)c2ccccc2)CC1)OCc1ccccc1,·,46.4,·,11.3,·,
CCN(CC(=O)Nc1ccc(NC(C)=O)cc1)C(=O)/C=C/c1ccco1,·,-6.6,·,3.2,·,
Cc1nn(-c2ccccc2)c(C)c1/C=N\NS(=O)(=O)c1ccc(Cl)cc1,1.9%,0.5,-25.1,-0.5,10.8,
CN(C(=O)/C=C/c1ccc([N+](=O)[O-])s1)c1ccccc1,?,99.6,·,-3.0,-28.2,
O=[n+]1c2c(n([O-])c3c1CCCC3)CCCCC2,2.9%,-2.5,-32.1,-0.5,4.8,Arbovirus anti repeat=0.0
Cc1ccc(N2CC(C(=O)Nc3ccc(S(=O)(=O)N4CCCC4)cc3)CC2=O)cc1C (centres undefined),·,3.4,·,3.4,·,
O=C(NCc1nc2ccccc2[nH]1)c1ccco1,-2.1%,-9.8,0.8,1.1,9.0,
Cn1c(N)c(C(=O)COC(=O)C2CC(O)CN2S(=O)(=O)c2ccc(Cl)cc2)c(=O)n(C)c1=O (centres undefined),-7.6%,-6.4,·,-1.3,·,
CC1CCN(S(=O)(=O)c2cn(CC(=O)Nc3ccc(OC(F)(F)F)cc3)cn2)CC1,·,-4.5,·,-2.0,·,
O=C(OCC#CCSc1nnc(-c2ccccc2)o1)c1ccco1,1.16µM*,98.8,-2.6,3.6,-1.9,
COc1ccc(Cl)cc1NC(=O)NCc1cccnc1,·,-7.0,·,3.0,·,
CC1Cc2ccccc2N1C(=O)COC(=O)c1c2c(nc3ccccc13)CCCCC2 (centres undefined),20.8%,25.4,-27.2,11.8,-18.7,
COc1ccc(N(C)S(=O)(=O)c2cccc(C(=O)NCC(c3cccs3)N(C)C)c2)cc1 (centres undefined),·,-5.4,·,-0.1,·,
Cc1ccc(N2C(=O)C3C(c4ccccc4)(C2=O)C3(c2ccccc2)c2ccccc2)cc1 (centres undefined),7.9%,12.9,-26.9,5.3,-1.3,
C=C(C)CN1CCN(S(=O)(=O)c2ccc(C)c(N(C)S(=O)(=O)c3ccc(C)cc3)c2C)CC1,13.9%,7.6,-0.4,6.5,1.5,
SMILES,Mtb growth,Mtb bLac sens,YopH inh,RecA intein inh,Arbovirus anti,others
CCCC(=O)NC(NC(=S)Nc1c(C)n(C)n(-c2ccccc2)c1=O)C(Cl)(Cl)Cl (centres undefined),4.5%,-8.7,-7.0,-1.2,1.9,
Cc1cccc(-n2c(O)c(/C=N/NC(=O)c3ccccc3Cl)c3ccccc3c2=O)n1,6.7%,0.4,-42.5,-39.5,-18.6,
O=C(COC(=O)c1cnccn1)c1ccc(C2CCCCC2)cc1,·,7.1,·,3.8,·,
CCOC(=O)c1ccc(NCc2nc3ccccc3n2C)cc1,51.7%,79.8,-21.7,1.8,4.4,
COc1ccc(F)cc1S(=O)(=O)NCCCn1ccnc1,·,0.3,·,1.0,·,
CCN1C(c2ccc(F)cc2)=CS/C1=C(\C#N)c1nnc2n1-c1ccccc1SC2,0.1%,-0.3,-19.9,0.7,7.8,
CC1CCCCN1C(=O)Cn1c(=O)n(-c2ccc(F)cc2)c(=O)c2sccc21 (centres undefined),6.2%,-4.3,·,-0.6,3.0,
O=C(CSc1ccccc1)Nc1ccc(N2CCOCC2)c(F)c1,·,-5.1,·,-3.6,·,
Cc1ccnc(SCC(=O)c2ccc(Br)cc2)c1C#N,7.0%,2.5,-18.8,-1.7,-1.2,
CN(CCC1CCCCO1)C(=O)CCc1nnc(Cc2c[nH]c3ccccc23)o1 (centres undefined),·,-27.9,·,0.7,·,
O=C(Cc1cccs1)Nc1nncs1,-4.7%,-1.5,-1.7,1.8,-5.7,
CCCn1c(SCC(=O)NCCc2ccc(OC)c(OC)c2)nc2c1c(=O)n(C)c(=O)n2C,-5.9%,-1.6,-47.8,-0.6,7.9,
O=C(c1nn2cccnc2c1Cl)N1CCN(c2ccccc2)CC1,6.3%,7.5,-17.5,·,0.9,
Cn1cc(SCC(N)=O)c2ccccc21,-0.1%,-1.2,-49.9,0.3,-0.8,
Cn1nnc(NCc2cc(Br)ccc2OCc2ccccc2F)n1,7.0%,-0.2,·,11.7,-3.8,
Cc1ccc(CNC(=O)c2ccc3c(c2)S(=O)(=O)c2ccccc2C3=O)cc1,10.4%,-1.7,·,-5.3,·,
CN1C(=O)/C(=C2/C=Cc3ccccc3N2CCCS(=O)(=O)O)SC1=S,1.1%,7.4,17.0,2.5,0.5,
[N-]=[N+]=NC[C@H](Cc1ccccc1)N1CC[C@@H](OCc2ccccc2)CCC1=O,·,-1.5,·,-0.2,·,
Cn1nnc2cc(C(=O)NC3CC3)ccc21,-5.6%,-6.3,2.9,4.2,-1.4,
CC(NC(=O)CN(C)Cc1ccc(Br)cc1)c1ccccc1 (centres undefined),·,6.5,·,-3.4,·,
CC(C)(C)c1nc(NCCN2CCOCC2)c2nnn(Cc3ccccc3Cl)c2n1,-3.4%,-3.4,-26.1,0.9,8.4,
CN(C)c1ccc(NC(=O)c2cn(-c3ccccc3)nc2-c2cccs2)cc1,66.5%,-9.2,5.9,5.0,-14.3,
COc1ccc(S(=O)(=O)N2CCOCC2)cc1NC(=O)CCc1nc2ccccc2c(=O)[nH]1,·,2.6,·,-1.5,·,
COc1ccccc1N1CCN(C(=O)C(=O)c2cn(CC(=O)N3CCOCC3)c3ccccc23)CC1,·,3.5,·,-0.9,·,
CC(=O)N1CCOc2ccc(S(=O)(=O)N3CCC(C(=O)Nc4ccc(C)cc4)CC3)cc21,·,-1.8,·,1.0,·,
SMILES,Mtb growth,Mtb bLac sens,YopH inh,RecA intein inh,Arbovirus anti,others
CCOC(=O)C(C(=O)OCC)C1OC(=O)c2cc3c(cc21)C(=O)OC3C(C(=O)OCC)C(=O)OCC (centres undefined),·,-1.7,·,3.5,2.4,
O=C(Nc1ccccc1F)N1CCc2ccccc2C1,·,0.1,·,3.0,·,
Cc1cc2c(ccc3c2no[n+]3[O-])nn1,?,100.0,-13.7,2.2,-8.2,
Cc1cccc(CCNS(=O)(=O)c2ccc3c(c2)oc(=O)n3C)c1,0.4%,4.9,-43.8,1.5,-1.9,
COc1cccc2cc(C(=O)Nc3ccccc3C(=O)N3CCOCC3)oc12,·,5.0,·,1.5,·,
Cc1cccc2sc(N(CCCN(C)C)C(=O)CCS(=O)(=O)c3ccccc3)nc12,·,36.2,·,-0.8,·,
CCc1[nH]c(=S)c(C#N)c2c1CCCC2,-2.7%,-2.5,-26.8,6.4,5.2,
CCOC(=O)C1CCN(C(=O)CCn2c(=O)c3cccn3c3cccnc32)CC1,·,-0.2,·,2.7,·,
COc1ccc(CCN2CC(C(=O)NCc3ccccc3)CCC2=O)cc1 (centres undefined),·,-0.2,·,1.6,·,
Cc1cccc(NS(=O)(=O)c2cc3c4c(c2)CCN4C(=O)CC3)c1C,·,-5.8,·,0.9,·,
C=CCn1c(SCCN2CCCCC2)nc2c1c(=O)[nH]c(=O)n2C,1.2%,3.9,-39.1,-1.4,8.8,Arbovirus anti repeat=12.5
Cc1c(C(=O)Nc2cc(S(=O)(=O)N3CCOCC3)ccc2N2CCN(C)CC2)oc2ccccc12,11.7%,7.5,·,-0.4,·,
CC1CCCN(CCCNS(=O)(=O)c2cc(Br)cc3c2N(C(=O)C2CC2)CC3)C1 (centres undefined),·,-3.1,·,-2.0,·,
CCOC(=O)c1cc2c(ccn2C)n1Cc1ccccc1Cl,6.0%,3.0,·,28.1,-3.5,
COCCNC(=O)c1cc2cc(Br)cc(OC)c2oc1=O,5.3%,?,-29.3,-1.5,6.0,

# Screening data from PubChem.
